Bioassay records deposited in PubChem by National Center for Advancing Translational Sciences (NCATS).
VACV Venus inh = qHTS for Stage-Specific Inhibitors of Vaccinia Orthopoxvirus: Venus Reporter Primary qHTS | Vaccinia virus Venus reporter expression, fluorescence | AID 720580, 2013 | 0.46% of 330,000 active | Potency, µM (top dose mostly 36.5 µM), inactives show at the highest dose activity change, negative = inhibition, actives largely listed as inhibitors; active means well fitted inhibition curve with a large enough effect; inconclusive means small, poorly fitted or top-dose-only effect; inactive means no such curve, though single readings can be large or run the other way; tested in A549 cells; further: nearly all actives have a fitted effect of over 30% in size; inactives centre near -10
VACV mCherry inh = qHTS for Stage-Specific Inhibitors of Vaccinia Orthopoxvirus: mCherry Reporter Primary qHTS; Vaccinia virus mCherry reporter infection, fluorescence; about a quarter of the inactives have no number; Potency, µM (series often up to 36.5 µM), without a hit: top-dose activity change, negative = inhibition, hits mostly inhibitors; 0.63% of 310,000 active; AID 720579, 2013; active = well fitted inhibition curve with a large enough effect; inconclusive = small, poorly fitted or top-dose-only effect; inactive = no such curve, though single readings can be large or run the other way; tested in A549 cells; further: nearly all actives have a fitted effect of over 35% in size; inactives centre near -10
* = called active by the depositor; i = inactive; ? = inconclusive; nt = not tested or not shown; & = joins results of further samples; [ ] = remark or other dose. On the % scale 0 is the no-effect control and ±100 the full control effect; potency means the concentration at half of the fitted maximal effect.

SMILES | VACV Venus inh | VACV mCherry inh
O=C(/C=N/O)NCc1ccncc1 | 2% | nt
CC1(C)CC(=O)C(C=NCCN2CCN(CCc3ccccc3)CC2)=C(O)C1 | -9% | -1%
Cc1ccc(S(=O)(=O)N(Cc2ccc(F)cc2)C(=O)N2CCN(C)CC2)cc1 | -3% | -10%
CSc1ncccc1C(=O)Nc1ccc(OC(F)(F)F)cc1 | -21% | -16%
Cc1ccccc1OCCC(=O)Nc1ccccc1C(=O)NC1CC1 | -1% | -4%
CCOC(=O)c1[nH]c(C)c(/C(O)=C2\C(=O)C(=O)N(CCCN(CC)CC)C2c2cccnc2)c1C (stereo unspecified) | -9% | -14%
Cc1cc(C)nc(-n2ncc3c2CC(c2ccc(F)cc2)CC3=O)n1 (stereo unspecified) | -10% | -9%
CCc1ccc(C(=O)COC(=O)c2cnc(C)cn2)cc1 | -3% | -28%
Cc1ccc2oc(-c3cc(NC(=O)c4ncn[nH]4)ccc3O)nc2c1 | -5% | i
CC(=O)c1cccc(N(C(=O)c2ccco2)C(C(=O)NC2CCCCC2)c2ccc(C)o2)c1 (stereo unspecified) | -20% | -29%
CCCOc1cccc(-c2nc3ccccc3c(=O)o2)c1 | -6% | -5%
COc1ccc(Br)cc1CNC(=O)C(C)n1nc(C)n2c(cc3occc32)c1=O (stereo unspecified) | -6% | -2%
COCCNC(=O)COC(=O)c1ccc(S(=O)(=O)N2CCOCC2)cc1 | -12% | i
COc1ccc(N=C2C(=Nc3ccc(OC)cc3)N(c3ccc(OC)cc3)C(=S)N2c2ccccc2)cc1 | -16% | -24%
O=C(OCc1cn([C@H]2CN(Cc3cccs3)[C@@H](c3ccccc3)C[C@@H]2O)nn1)c1ccccc1 | -14% | i
COc1ccc(S(=O)(=O)N2CCCCC2)cc1NC(=S)Nc1ccccc1 | -7% | -12%
COc1ccc(CNC(=O)c2cccc(-n3cnc4cccnc43)c2C)cc1 | -5% | -11%
Cc1cc2nc(CCN(Cc3cccnc3)C(=S)Nc3ccccc3)[nH]c2cc1C | -25% | -13%
Cc1cc(N2CCN(c3ccc(F)cc3)CC2)n2cnnc2n1 | -17% | -21%
O=C(CSc1nnc(-c2ccccc2)n1Cc1ccccc1)NNC(=O)c1ccccc1O | ? | ?
Cc1ccc(NC(=O)COc2ncnc3ccccc23)cc1S(=O)(=O)N1CCOCC1 | -22% | i
CSc1ccc(CCNC(=O)c2csc3c2CCCCC3)cc1 | -8% | -14%
CCCn1nnc(NC(=O)c2ccc([N+](=O)[O-])cc2Cl)n1 | -5% | i
COc1ccc(C2C=CC(=O)CC2)c(OC)c1 (stereo unspecified) | -3% | -13%
CCOc1ccc(-c2cc(C(=O)NCc3cc(OC)cc(OC)c3)[nH]n2)c(C)c1 | -12% | 9%

(more compounds)
SMILES | VACV Venus inh | VACV mCherry inh
O=C(COc1ccc(-c2ccccc2)cc1)N1CCN(S(=O)(=O)Cc2ccccc2)CC1 | ? | ?
Cc1ccc(S(=O)(=O)Nc2nc(C)c(C(=O)NN)s2)cc1 | 2% | i
Cn1c(NC(=O)c2ccccc2F)c(-c2cccs2)c(=O)c2ccccc21 | -10% | -15%
CCOC(=O)/C=C/c1ccc2c(c1)S(=O)(=O)N(c1cccc(OC)c1)[C@H]2CC(=O)OCC | -19%&-17% | -17%&-4%
CN(CCCC(=O)NCc1ccc2c(c1)OCO2)S(=O)(=O)c1ccc([N+](=O)[O-])cc1 | -17% | -3%
COc1ccc2c(c1)oc(=O)c1ccccc12 | 20% | 29%
CCN(CC(=O)Nc1ccc2c(c1)OCCO2)C(=O)/C=C/c1cccc(OC)c1OC | -22% | -1%
O=C(Nc1ccccc1)c1ccc(CSc2ccccn2)cc1 | -11% | -13%[1.46 µM]
N#Cc1ccccc1OCC(=O)Nc1ccccc1C(=O)NC1CC1 | -1% | 1%
O=C(CONS(=O)(=O)c1ccc(Cl)cc1)NCCNc1ncc(C(F)(F)F)cc1Cl | -21% | i
COC(=O)c1c(NC(=O)COC(=O)c2ccccc2O)sc2c1CCCCC2 | -5% | -6%
CC(CC(=O)O)CC(=O)NNC(=O)c1cccc(Br)c1 (stereo unspecified) | -1% | -11%
NS(=O)(=O)c1ccc(N2CCOCC2)c(C(=O)NCc2ccc3c(c2)OCO3)c1 | -10% | -20%
Cc1c(C(=O)N/N=C/C(C)C)[nH]c2c([N+](=O)[O-])cccc12 | ? | -23%
N#Cc1ccc(NC(=O)COc2ccccc2C(=O)Nc2ccccc2)cc1 | ? | ?
COc1cc(NC(=S)NCCCO)c(OC)cc1Cl | -1% | i
Cc1ccc(S(=O)(=O)Nc2nc3ccccc3nc2NCc2ccco2)cc1C | -13% | nt
CCN1C(=O)CSC1=Nc1ccc(OC)cc1 | 10% | -5%
O=C(CCCCn1c(=O)[nH]c2ccccc2c1=O)NCc1ccc2c(c1)OCO2 | -12% | -17%
CC(=O)Nc1ccc(S(=O)(=O)NCC2CCC(C(=O)NCCCN(C)Cc3ccccc3)CC2)cc1 (stereo unspecified) | -23% | i
CCOC(=O)c1cnn(-c2ncnc3c2cnn3C)c1N | -6% | -1%
C/C(=N\NC(=O)C(O)c1ccccc1)c1ccc(Cl)cc1 (stereo unspecified) | -11% | -16%
COc1ccc(CN2CC(=O)N(c3ccccc3C)C2=S)cc1OC | -9% | i
Cc1ccc(/C=C2/C(=O)c3ccc(C(=O)O)cc3C2=O)o1 | 9% | -4%
COc1cccc(N2CCN(c3ccc4nnc(CCC(=O)Nc5cccc(C(C)=O)c5)n4n3)CC2)c1 | -26%[7.34 µM] | -7%[7.34 µM]

Next part
SMILES | VACV Venus inh | VACV mCherry inh
CCc1nc2c(OCc3cccc(Cl)c3)cccn2c1N(C)C(=O)Nc1ccccc1OC | ? | -9%
Cc1cc(OCC(=O)Nc2nc3c(s2)CCCC3)cc(C)c1Cl | -18% | -11%
CCC/C=C/c1ccc(CN2C(C(C)C)C(=O)N(Cc3cn(Cc4ccco4)nn3)CCS2(=O)=O)cc1 (stereo unspecified) | ? | -8%
Cc1ccc(S(=O)(=O)N2CCC(=O)N(CCOCc3ccc(F)cc3)CC2)cc1 | -29% | ?
CCOc1ccc(S(=O)(=O)N(CC(=O)N2CCc3ccccc32)Cc2ccco2)cc1 | ? | ?
O=C1C2C3C=CC(O3)C2C(=O)N1Cc1ccncc1 (stereo unspecified) | -3% | -9%
CC/C(=N\NC(N)=O)c1ccc(OC)c(OC)c1 | -3% | -14%
O=C(CN1C(=O)NC2(CCCC2)C1=O)OCCOc1ccc(Cl)cc1Cl | -14% | -19%
COc1ccc(NCc2ccc([N+](=O)[O-])s2)cc1 | -22% | -16%
Cc1ccc(O)c(NC(=S)NC(=O)COc2ccc(Br)cc2)c1 | -29% | -20%
COC(=O)[C@@]12C[C@@H](CC(=O)NCc3cccs3)C(=O)N(CCc3ccc(OC)c(OC)c3)C1=CCC(C)(C)C2 | -5% | -9%
CC(=O)Nc1ccc(-c2ccnc3c2CC(C)(C(=O)NCC2CC2)O3)cc1 (stereo unspecified) | -9% | -1%
CC1CCCCC1NC(=O)CCCn1c(=S)[nH]c2ccccc2c1=O (stereo unspecified) | -16% | i
CC(=O)c1cccc(N2C(=NC(=O)CCc3ccccc3)SC3CS(=O)(=O)CC32)c1 (stereo unspecified) | -11%[7.34 µM] | i[7.34 µM]
CCCOc1ccc(C(=O)N2CCN(c3ccc(N)cc3Cl)CC2)cc1 | -16% | -2%
O=C(COC(=O)CCNS(=O)(=O)c1ccc(Cl)cc1)NCc1ccccc1 | -2% | i
Cc1cccc(C(=O)O)c1O | -25% | -17%
Cc1cccc(/C(N)=N/OC(=O)N2CCOCC2)c1 | ? | ?
Cc1cc(C)n2nc(C(=O)OCC(=O)Nc3ccc(F)cc3F)nc2n1 | -12% | i
CC(=O)NCCC(=O)N1CCCC(C(=O)c2ccc3c4c(cccc24)CC3)C1 (stereo unspecified) | -8% | i
CCCNC(=O)c1cn(CC)c2cc(N3CCN(C)CC3)c(F)cc2c1=O | -18% | nt
NC(=O)CSc1ccc(F)cc1 | -9% | 0%
COc1ccc(-c2cc(C(=O)Nc3ccc(C(N)=O)cc3)c3ccccc3n2)cc1 | -11% | 0%
CC(C(=O)NC1CCCC1)n1c(-c2ccncc2)nc2ccccc21 (stereo unspecified) | -7% | 6%
COc1cc(Cn2c(=O)sc3ccccc32)ccc1OC(C)C | -16% | -19%

Additional entries.
SMILES | VACV Venus inh | VACV mCherry inh
CCOc1ccc(CNC(=O)COc2cc(=O)n(C)c3ccccc23)cc1 | 5% | 5%
COc1ccc(Cl)cc1NC(=O)Nc1cn(C)nc1C | -12% | i
OCc1nc2ccccc2n1C/C=C/c1ccccc1 | -4% | -7%
C[N+](C)(C)CCCCCCCCCC[N+](C)(C)C | -5% | i
CCOC(=O)c1c(C)[nH]c(C)c1S(=O)(=O)N1CCCC(C(=O)NCc2ccc(C)cc2)C1 (stereo unspecified) | -5% | -13%
CCC(=O)NC1CCc2cccc(OC)c2C1 (stereo unspecified) | -11% | i
COC(=O)c1ccccc1NC(=O)c1ccc2c(c1)OCCO2 | -2% | i
COc1ccc(C(=O)N2CCCCC2c2cc(C(=O)NCc3ccc(F)cc3)no2)cc1 (stereo unspecified) | -7% | 9%
CC(=O)N1C(C(=O)O)Cc2c([nH]c3ccccc23)C1(C)C (stereo unspecified) | -9% | -15%
Nc1nc2c(F)c(F)c(F)cc2s1 | -9% | -6%
Cc1ccc(NC(=O)CCN2C(=O)c3ccccc3Sc3ncccc32)c(Cl)c1 | -16% | -22%
CC(=O)CCc1c[nH]c2c(C(=O)O)cccc12 | -5% | nt
NC(=S)NNC(=O)c1cc(C(F)(F)F)cc(C(F)(F)F)c1 | -19% | i
Cc1ccc(S(=O)(=O)N2CCN(c3nc(-c4cccnc4)nc4ccccc34)CC2)cc1 | -5% | -9%
Nc1ccccc1NC1CCCCC1 | ? | ?
COc1cc(=O)[nH]c(SC(C)C(=O)Nc2nc3c(s2)CCCC3)n1 (stereo unspecified) | 6% | -9%
CCN(CC)C(=O)C1CCCN(Cc2sccc2C)C1 (stereo unspecified) | -6% | -12%
O=C(Cn1cc(S(=O)(=O)Cc2cccc(Cl)c2)c2ccccc21)Nc1ccc(F)c(Cl)c1 | -14% | -11%
CCOc1ccc(-c2c(C#N)c(N)nc3c2c(=O)n(C)c(=O)n3C)cc1OC | -7% | -10%
Nc1ncccc1OCc1ccc(Cl)c(Cl)c1 | -3% | i
CCOC(=O)N1CCC(Nc2c(NCCN3CCN(c4ccccc4F)CC3)c(=O)c2=O)CC1 | -5%&-8% | -19%
Cc1ccc(O)c(NC(=O)CSc2ccc(Cl)cc2)c1 | ? | ?
CN(C(=O)CSc1nnnn1-c1ccc(O)cc1)C1CCS(=O)(=O)C1 (stereo unspecified) | -12% | i
O=C(COc1ccc(Br)cc1)N/N=C1/SCC(=O)N1Cc1ccccc1 | -18% | -20%
CC1(c2nnnn2Cc2ccccc2)CCC(=O)N1CC(F)(F)F (stereo unspecified) | 7% | -3%

A second format for some results above.
mol,VACV Venus inh,VACV mCherry inh
COc1ccc(Cl)cc1NC(=O)Nc1cn(C)nc1C,-12%,i
OCc1nc2ccccc2n1C/C=C/c1ccccc1,-4%,-7%
C[N+](C)(C)CCCCCCCCCC[N+](C)(C)C,-5%,i

Some of the entries so far, in CSV form:
smiles,VACV Venus inh,VACV mCherry inh
OCc1nc2ccccc2n1C/C=C/c1ccccc1,-4%,-7%
C[N+](C)(C)CCCCCCCCCC[N+](C)(C)C,-5%,i
CCOC(=O)c1c(C)[nH]c(C)c1S(=O)(=O)N1CCCC(C(=O)NCc2ccc(C)cc2)C1 (stereo unspecified),-5%,-13%
CCC(=O)NC1CCc2cccc(OC)c2C1 (stereo unspecified),-11%,i

Sorted by number of heavy atoms (high to low): some entries from above
SMILES | VACV Venus inh | VACV mCherry inh
COC(=O)c1ccccc1NC(=O)c1ccc2c(c1)OCCO2 | -2% | i
COc1ccc(Cl)cc1NC(=O)Nc1cn(C)nc1C | -12% | i
CC(=O)CCc1c[nH]c2c(C(=O)O)cccc12 | -5% | nt

Continuation:
SMILES | VACV Venus inh | VACV mCherry inh
CCc1cccc(C)c1NC(=O)COn1nnc2ccc(C(F)(F)F)cc21 | -6% | -15%
CCNC(=O)C1(C)CCCN(C(=O)c2ccc3sccc3c2)C1 (stereo unspecified) | 0% | 5%
Cc1ccc(C)c(N2C(=O)N(C)c3ccccc3S2(=O)=O)c1 | 1% | -2%
COc1ccccc1NC(=O)NCCCN1CCN(c2cccc(Cl)c2)CC1 | -15% | ?
CC(=O)N1c2ccccc2CC1C(=O)NCc1cccc(Cl)c1 (stereo unspecified) | -7% | -2%
CCOC(=O)CCC(=O)Nc1ccc(S(=O)(=O)N2CCCC2)cc1 | 6% | i
Nc1cc(C(=O)N2CCN(c3cccc(Cl)c3)CC2)ccc1N1CC2CC(C1)c1cccc(=O)n1C2 (stereo unspecified) | -10% | -12%
Cc1[nH]c(=O)nc(NN=Cc2ccc(Cl)cc2)c1C(=O)Nc1ccc(Cl)cc1 | -13% | i
CC(=O)c1ccc(C(=O)N2CCCC(N3CCN(c4ccc(F)cc4)CC3)C2)s1 (stereo unspecified) | -10% | -12%
O=C1CCc2cc(S(=O)(=O)N3CCC(C(=O)NC4CCCCCCC4)CC3)ccc2N1 | -13% | i
